# VDR inhibitor: Inhibitors of the vitamin D receptor (VDR): qHTS | AID 504847, 2011 | VDR-SRC2-3 peptide fluorescence polarization, 2 h | 400,000 compounds, 0.93% hits | Potency, µM, inactives show max response, negative = inhibition, actives largely listed as inhibitors | Vitamin D3 receptor (Homo sapiens), P11473; active means well fitted inhibition curve with a large enough effect; inconclusive means small, poorly fitted or top-dose-only effect, or another doubt; inactive means no such curve, though single readings can be large or run the other way; further: series mostly up to about 120 µM
# Target sequence (P11473 whole entry, looked up): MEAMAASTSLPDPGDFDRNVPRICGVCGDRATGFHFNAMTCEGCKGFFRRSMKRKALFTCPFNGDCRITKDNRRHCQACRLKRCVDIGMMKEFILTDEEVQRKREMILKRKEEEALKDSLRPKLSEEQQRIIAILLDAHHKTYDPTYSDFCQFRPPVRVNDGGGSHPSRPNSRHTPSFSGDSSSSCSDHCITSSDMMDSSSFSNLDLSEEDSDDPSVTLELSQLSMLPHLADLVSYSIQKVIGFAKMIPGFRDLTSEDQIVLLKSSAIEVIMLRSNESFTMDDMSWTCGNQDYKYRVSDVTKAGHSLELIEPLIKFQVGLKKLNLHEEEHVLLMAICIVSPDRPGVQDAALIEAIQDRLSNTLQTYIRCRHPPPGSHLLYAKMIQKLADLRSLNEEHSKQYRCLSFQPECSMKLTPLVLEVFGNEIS
#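 Two reagent solutions held at 4 deg C in the dark were dispensed, compounds pinned at 23 nl, and the mixture incubated 2 h at room temperature. Read-out: fluorescence polarization of VDR–SRC2-3 peptide binding.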
# An asterisk follows results filed as active; u = inconclusive; & = joins results of further samples; [ ] = another dose, or the depositor's remark. On the % scale 0 is the no-effect control and ±100 the full control effect; potency means the concentration at half of the fitted maximal effect. This is a subset; the hit share may differ from the screen's.
SMILES	VDR inhibitor
CC/C(=N\NC(=O)c1ccccc1O)c1c(O)n(Cc2ccccc2)c(=O)[nH]c1=O	-16.7%
CN=C1CN(O)C(c2ccccc2)c2cc(Cl)ccc2N1 (stereo not given)	-7.1%
COC(=O)C1=C(c2ccc(-c3ccccc3)c(F)c2)C[C@@H]2CC[C@H]1N2C(=O)NCc1cccc2ccccc12	u
CC1=C(/C=C/c2ccccc2)CCN(C)C1	-6.9%
C#CCN1CCN(c2cccc(C(F)(F)F)c2)CC1	3.1%
Cc1cccc(-n2c(O)c(C=NCCN3CCCCC3)c(=O)[nH]c2=O)c1	9.4%
NC(=O)Nc1cccc(C(F)(F)F)c1	17.5%
Cc1ccc(-c2nc3ccccc3c(=O)n2-c2cccc(O)c2)cc1	-3.9%
CCOc1nc(NC(C)C)nc(N2CC3CC(C2)c2cccc(=O)n2C3)n1 (stereo not given)	u
C=CCSc1nc2c(c(-c3ccsc3)c1C#N)CN(C)CC2	-17.0%
COC(=O)c1cncn1C(C)c1ccccc1 (stereo not given)	25.7%&11.8%
CCCC12CN3CCN(C1)CC(CCC)(C3)C2=O	-6.9%
C=CCO[C@@H](Cn1ccnc1)c1ccc(Cl)cc1Cl	-20.2%
CC(C)[C@]12O[C@H]1[C@@H]1O[C@]13[C@]1(O[C@H]1C[C@H]1C4=C(CC[C@@]13C)C(=O)OC4)[C@@H]2O	5.7%
COc1ccc(-n2c(O)c(C(C)=NCc3ccc4c(c3)OCO4)c(=O)[nH]c2=O)cc1	-14.5%
CC1CN=C(NCc2ccc(F)cc2)S1 (stereo not given)	7.2%
O=C(N/N=C1/CN2CCC1CC2)c1cccc(O)c1	-1.3%
C/C(=N\N1CCCCCC1)c1c(O)n(-c2ccc(Cl)cc2)c(=O)[nH]c1=O	3.6%
O=c1[nH]c(CN2CC=C(c3ccccc3)CC2)nc2scc(-c3ccccc3)c12	11.5%
Cc1c(C=C2C(=O)N(C)C(=O)N(C)C2=O)c(=O)n(-c2ccccc2)n1C	-5.2%
CS(=O)(=O)NCc1nnc2n1-c1ccc(Cl)cc1C(c1ccccc1)=NC2	-8.1%
O=P(NC(c1ccccc1)c1ccccc1)(Oc1ccccc1)Oc1ccccc1	-7.1%
CCN1CCN(Cc2ccc(OC(F)(F)F)cc2)CC1	7.5%
O=c1[nH]c(=S)[nH]c(O)c1C(c1ccccn1)c1c(O)[nH]c(=S)[nH]c1=O	1.7%
Fc1ccc(N2CCN(Cc3ccc4c(c3)OCO4)CC2)cc1	6.7%
COC(=O)CC1=C(C(=O)OC)C2(C(=O)Nc3c(C)cccc32)C(C#N)=C(N)O1 (stereo not given)	6.2%
O=c1cccc2n1CC1CC2CN(Cc2c(Cl)cccc2Cl)C1 (stereo not given)	-0.2%
Cc1[nH]nc2ccc(-c3cncc(OC[C@@H](N)Cc4c[nH]c5ccccc45)c3)cc12	u
Cc1cc(=O)oc2cc3c(cc12)CCCN3	-14.0%
ClC(Cl)(Cl)c1ccccc1	3.8%
CCOC(=O)c1nc2ccccc2c(=O)n1-c1ccc(C)cc1	-4.1%
COc1ccc(NC(c2ccccc2)P(=O)(Oc2ccccc2)Oc2ccccc2)cc1 (stereo not given)	-14.2%
COc1cc(C2c3cc4c(cc3C(O)C3COC(=O)C23)OCO4)cc(OC)c1O (stereo not given)	-0.5%
c1cc2n(c1)-c1c(ccc3c1OCO3)CNC2c1ccc2c(c1)OCO2 (stereo not given)	27.8%
C=C1[C@@H](C)[C@H]2[C@H](Cc3ccccc3)NC(=O)[C@]23[C@H](OC(C)=O)/C=C/[C@](C)(O)C(=O)[C@@H](C)C/C=C/[C@H]3[C@@H]1O	-21.9%&-3.1%
COC(=O)C1=C(c2ccc(C(C)=O)cc2)C[C@@H]2CC[C@H]1N2C(=O)NCCO	3.9%
COC(=O)C(O)(c1ccc(NC(=O)NC2CCCCC2)cc1)C(F)(F)F (stereo not given)	1.2%
CCN1C[C@]2(C)CC[C@H](O)[C@]34C1[C@H](C[C@H]23)[C@@]1(O)C[C@H](OC)[C@H]2C[C@@H]4[C@@H]1C2O (stereo not given in full)	-4.0%
CC1(C)CN=C(NCc2ccccc2)S1	9.3%
CCN1C(=O)N(CC)C(=O)C2(Cc3ccccc3N3CCN(c4ccccc4)CC32)C1=O (stereo not given)	-13.4%
COC1=CC(=O)O[C@@H](/C=C/c2ccccc2)C1	-16.3%
O=C(Nc1ccccc1)N1CC[C@@]2(CCCN(C(=O)Oc3ccccc3)C2)C1	-2.3%
CCc1c(C)nc(N)nc1N1N=C1SCCOc1ccccc1	5.6%
CCOP(=O)(OCC)C(O)c1ccccc1 (stereo not given)	-6.7%
C=CCc1cc(OC)c2c(c1OC)OCO2	-0.2%
COC(=O)c1ccc(NC(=O)c2cccn(Cc3ccccc3C)c2=O)cc1	-5.7%
CCNCC(O)c1cccc(O)c1 (stereo not given)	-23.2%
Cc1cc(NC(=O)c2cccn(Cc3cccc([N+](=O)[O-])c3)c2=O)no1	10.2%
C=CCC1(CN2CCCCCC2=O)C(=O)NC(=O)NC1=O	4.9%
CC(C)CN(CC(C)C)C(=O)C1C2c3ccccc3C(c3ccccc32)C1C(=O)O (stereo not given)	5.7%

# (continued)
SMILES	VDR inhibitor
CC(C)C(NC(=O)C(C(C)C)N(C)C)C(=O)N(C)C(C(=O)N1CCCC1C(=O)N1CCCC1C(=O)NCc1ccccc1)C(C)C (stereo not given)	3.9%
CCN1C[C@@]2(COC)C3[C@@H](OC)[C@H]4C1[C@@]3(C1C[C@]3(O)C(OC)[C@H](O)[C@@]4(OC(C)=O)C1[C@H]3OC(=O)c1ccccc1)[C@H](OC)C[C@H]2O (stereo not given in full)	11.4%
COc1ccccc1N1C(=O)NC(=O)/C(=C\c2cnn(-c3ccccc3)c2)C1=O	u
Cc1cc(NC(=O)C(Cl)(Cl)Cl)no1	2.5%
O=C1Nc2ccc(Cl)cc2C(c2ccccc2Cl)=NC1O (stereo not given)	-0.8%
O=C(Nc1cccc(C(F)(F)F)c1)OC1CN2CCC1CC2 (stereo not given)	14.8%
CCOc1ccc([N+](=O)[O-])cc1CNCCc1ccccc1	10.2%
O=C1NC(=O)C(=Cc2ccc(OCCOc3ccc([N+](=O)[O-])cc3)cc2)C(=O)N1	50.1µM*
CCOC(=O)C1(CCCc2ccccc2)CCN(C2CCCC2)CC1	-2.2%
N#CC1=C(N)Oc2c(c(=O)oc3ccccc23)C1c1ccc([N+](=O)[O-])o1 (stereo not given)	u
O=c1c2ccccc2nc(/C=C/c2ccc(F)cc2)n1-c1ccccc1O	-12.8%
NC(CO)Cc1ccccc1 (stereo not given)	5.5%
CC1=CC(O)C(O)C2(C)C1CC1OC(=O)CC3C(C)C(O)C(=O)C2C13CO (stereo not given)	-15.9%
CCC(C)C(=O)O[C@@H]1C[C@@]2(C)C(c3ccoc3)OC(=O)CC23OC2(C)O[C@@]14[C@@]1(C)C(CC(=O)OC)C5(C)CC1(O)C(O)(C5OC(=O)C1(C)OC1C)C(OC(C)=O)[C@@]34O2 (stereo not given in full)	0.0%
O=S(=O)(c1ccc(Cl)cc1)c1ccc(Cl)cc1	-6.6%
COC(=O)C1=C(c2c(C)noc2C)C[C@@H]2CC[C@H]1N2C(=O)NCc1ccco1	-2.2%
CCCCn1c(O)c(C=NCCN2CCCCC2)c(=O)[nH]c1=O	-7.7%
CN(C)c1ccc(C=C2C(=O)NC(=S)NC2=O)cc1	u
COC(=O)C1=C(c2ccccc2OCc2ccccc2)C[C@@H]2CC[C@H]1N2C(=O)NCCc1ccc(F)cc1	-4.5%
CC[C@H](C)C(=O)O[C@@H]1[C@H](O)[C@@H]2[C@H](CN3C[C@@H](C)CC[C@@H]3[C@@]2(C)O)[C@@H]2C[C@@]34O[C@@]5(O)[C@@H](OC(=O)[C@](C)(O)CC)CC[C@@]3(C)[C@H]5[C@H](OC(C)=O)[C@@H](OC(C)=O)[C@H]4[C@]12O	-1.5%
O=C(NCCO)c1nsnc1NCCCl	-7.9%
CN1CCc2nc(N)c(C#N)c(-c3ccccc3)c2C1	-11.6%
c1cc(C2N3CCCN2CC3)ccn1 (stereo not given)	-0.1%
O=C1NC(=O)C2(Cc3ccccc3N3CCCC32)C(=O)N1 (stereo not given)	3.7%
CC(C)[C@H](NC(=O)[C@H](CC(=O)O)NC(=O)[C@H](Cc1ccccc1)NC(=O)[C@@H](C)NC(=O)[C@@H](N)Cc1ccc(O)cc1)C(=O)N[C@H](C(=O)NCC(N)=O)C(C)C	8.9%
O=C(COc1ccccc1)N1CCN(CC2CC=CCC2)CC1 (stereo not given)	10.4%
COc1cc(C(O)CNC(C)C)cc(F)c1OC (stereo not given)	-23.8%
COc1ccc(OC)c(-n2c(O)c(C=Nc3c(C)n(C)n(-c4ccccc4)c3=O)c(=O)[nH]c2=O)c1	12.7%
C[C@H]1C2Cc3ccc(O)cc3[C@]1(C)CCN2CC1CC1	0.0%
Cc1ccc(S(=O)(=O)N2CN3CCN(C3)C2)cc1	-13.3%
CCC/C=C/C=C/C(=O)OC1/C(=C/C(=O)OC)CC2CC(C(C)O)OC(=O)CC(O)CC3CC(OC(C)=O)C(C)(C)C(O)(CC4C/C(=C/C(=O)OC)CC(/C=C\C(C)(C)C1(O)O2)O4)O3 (stereo not given)	-1.1%
O=C1/C(=C\c2ccc3c(c2)OCO3)N2CCC1CC2	1.3%
Cc1cc2c(s1)NC(=O)CN=C2c1cccs1	16.0%
CCc1ccccc1NC(=O)CSc1nnc([C@@H](N)Cc2c[nH]c3ccccc23)o1	5.7%
COC(=O)COc1cc(C)cc2oc(=O)c3c(c12)CCCC3	-9.1%
FC(F)OC(F)(F)C(F)Cl (stereo not given)	4.7%
O=C(c1ccc2c(c1)OCO2)C1CCCN(CC2CCCCC2)C1 (stereo not given)	1.4%
O=c1c2ccccc2nc(/C=C\c2cccc(Br)c2)n1-c1ccc(O)cc1	10.0%
O=c1c2ccccc2nc(/C=C/c2ccc3c(c2)OCO3)n1-c1cccc(O)c1	-1.4%
O=C(Nc1ccc(F)c(Cl)c1)N(Cc1ccc2c(c1)OCO2)C1CCN(Cc2ccccc2)CC1	-8.5%
CC(C)CCC1(CCO)C(=O)NC(=S)NC1=O	38.5%[activator]
N=c1sccn1Cc1ccccc1F	8.1%
NCCc1cccc(O)c1	12.4%&7.5%
O=C(CN1C(=O)S/C(=C\C=C\c2ccccc2)C1=O)Nc1ccccc1C(=O)O	79.4µM*
Cc1cccc(-c2nc(CN3C(=O)CN=C(c4ccccc4)c4ccccc43)c(C)o2)c1	-11.9%
Cc1ccccc1CS(=O)(=O)Cc1ccc(C(=O)N2CCC3(CC2)OCCO3)o1	6.4%
O=C(CCN1C(=O)COc2ccccc21)N1CCC2(CC1)OCCO2	8.1%
COC(=O)C1=C(c2ccc(Cl)c(C(F)(F)F)c2)C[C@@H]2CC[C@H]1N2C(=O)NCCCOC(C)C	-15.1%
COc1ccc(C)cc1NC(=O)N1CCC2(CC1)OCCO2	-8.1%
CN(C)c1ccc(C=C(C#N)C#N)cc1	-1.6%

# The final 3 entries of the section above open the next one.
SMILES	VDR inhibitor
COC(=O)C1=C(c2ccc(Cl)c(C(F)(F)F)c2)C[C@@H]2CC[C@H]1N2C(=O)NCCCOC(C)C	-15.1%
COc1ccc(C)cc1NC(=O)N1CCC2(CC1)OCCO2	-8.1%
CN(C)c1ccc(C=C(C#N)C#N)cc1	-1.6%
Cc1nn(Cc2ccccc2)c(C)c1C=C1C(=O)NC(=S)NC1=O	25.1µM*
O=c1[nH]c(O)c(C=Nc2ccccc2Sc2ccccc2)c(=O)[nH]1	3.0%
CN(C)C(=O)Oc1ccc2c(c1)O/C(=C\c1ccc(Cl)cc1)C2=O	-16.5%
Cc1cccc(-n2c(=S)[nH]c3ccccc3c2=O)n1	-13.0%
C=CCn1c(O)c(C(C)=NC2CC2)c(=O)[nH]c1=O	4.1%
Cc1nn(Cc2ccccc2)c(C)c1C(=O)OCC(=O)NCc1ccco1	1.2%
CC(CCN1CC1)=NNC(=O)Nc1cccc2ccccc12	-0.5%
CC(=O)O[C@@]12CO[C@@H]1C[C@H](O)[C@@]1(C)C(=O)[C@H](O)C3=C(C)[C@@H](OC(=O)[C@H](O)[C@@H](NC(=O)c4ccccc4)c4ccccc4)C[C@@](O)([C@@H](OC(=O)c4ccccc4)C12)C3(C)C (stereo not given in full)	-13.3%
CCCCc1nc2ccccc2c(=O)n1-c1ccc(Cl)cc1[N+](=O)[O-]	-0.9%
Cc1nc2ccccc2c(=O)n1-c1ccc(Br)cn1	-15.4%
Cc1cc(-n2c(/C=C/c3ccc(Br)s3)nc3ccccc3c2=O)ccc1Br	3.4%
COc1ccc(-c2nc(CSCC(=O)N3CCC4(CC3)OCCO4)c(C)o2)cc1OC	-16.8%
CC(C)n1c(O)c(C=NCc2cccnc2)c(=O)[nH]c1=S	-17.8%
COc1ccccc1OP(=O)(Nc1ccc(Br)cc1)Oc1ccccc1OC	-4.4%
CCc1c(C)nc(N)nc1N1N=C1SCC#N	-5.7%
Cc1cccc(N=Cc2c(O)n(-c3ccccc3C)c(=O)[nH]c2=O)c1	8.6%
CN1OC[C@@H]2COc3ccc4ccccc4c3[C@@H]21	13.8%
O=C(NC(C(Cl)Cl)N1CCOCC1)c1ccccc1 (stereo not given)	-0.8%
CN1CCC2(CC1)C(C#N)=C(N)NC(S)=C2C#N	-18.8%&12.1%
